Bst PK mod – pyruvate kinase (B. stearothermophilus) modulation; partly purified Bacillus stearothermophilus pyruvate kinase, luminescence ATP production; ribose 5-phosphate activator present at AC10; Potency, µM; 51,000 compounds, 1.2% hits; in the data active means potency below about 11 µM; inconclusive means mostly about 12 µM to 25 µM; inactive means weaker than that;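 the screen sought inhibitors and activators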;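 also: potency is read from the fitted curve at half-maximal effect; scaled between full activation by ribose 5 phosphate and full inhibition by luteolin; about four in five hits inhibit and the cells do not say which; series up to 57 µM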
TsaE inh – YjeE (TsaE) inhibition, E. coli; Potency, µM; 71,000 compounds, 0.05% hits; purified YjeE, fluorescence polarisation of a bound ADP probe; P0AF67; active = well fitted falling curve; inconclusive = weaker or top-dose-only fall, or a rising curve; inactive = flat or poorly fitted curve;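 also: top concentration of the series not given in the record; excess ADP was the control for the full effect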
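Fluorescence polarization of a BODIPY Texas Red–ADP probe (2 uM) bound to purified YjeE (10 uM) was read after 15 min room-temperature incubation with compounds. Loss of polarization marks inhibitors; ADP serves as titrated control.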
Active calls of the source: *; i = inactive; . = no result given. This is a subset (hit frequency here may not be typical).

Screens in order: Bst PK mod | TsaE inh
- c1cc(C(c2nnnn2C2CCCCC2)N2CCN3CCCC3C2)ccn1 (stereo not drawn)
 : >57 | i
- O=C(CCNS(=O)(=O)c1cccs1)Nc1ccccc1F
 : >57 | i
- O=C(c1ccco1)N1CCN(S(=O)(=O)c2ccc(Br)s2)CC1
 : >57 | i
- CCOC(=O)c1c(C)c(C(=O)NCc2ccccn2)c(C)n1C
 : >57 | i
- Cc1ccc(CNC(=O)C2CCCN(S(=O)(=O)c3cccnc3)C2)cc1 (stereo not drawn)
 : >57 | i
- O=C(Nc1ccccc1)N1CC[C@@]2(CCCN(C(=O)c3ccncc3)C2)C1
 : . | i
- c1ccc(Cn2nnc3c(N4CCc5ccccc54)ncnc32)cc1
 : >57 | i
- Cc1cc(=O)[nH]c(COc2ccccc2)n1
 : >11.4 | .
- CC1(C)O[C@@H]2C[C@H]3[C@@H]4CCC5=CC(=O)C=C[C@]5(C)[C@@]4(F)[C@@H](O)C[C@]3(C)[C@]2(C(=O)CO)O1
 : >25.6 | .
- O=C(CSCc1cnn(-c2ccccc2)c1-n1cccc1)NCCN1CCOCC1
 : >57 | i
- N#Cc1cn(CCOc2ccccc2F)c2ccccc12
 : >57 | i
- COC(=O)c1ccc(C(NC(=O)OCc2ccccc2)/C(=C/[C@@H](C)C(=O)NC2CCCCC2)c2cccnc2)cc1 (stereo partly drawn)
 : . | i
- COCCNC(=O)C(c1ccc(C)o1)N(Cc1ccccc1)C(=O)Cn1nnc2ccccc21 (stereo not drawn)
 : >57 | i
- COc1ccc(CNc2nc(SCC(=O)NCc3ccco3)nc3ccccc23)cc1
 : >57 | i
- Cc1cc(=O)c2cc(Cl)ccc2[nH]1
 : . | i
- CC(CS(=O)(=O)c1cccc2cccnc12)N1CCCCC1 (stereo not drawn)
 : i | i
- Cc1ccc2nc(NC(=O)C3CCCN(S(=O)(=O)c4cccc5nonc45)C3)sc2c1 (stereo not drawn)
 : >57 | i
- COC(=O)c1ccccc1NC(=O)Cn1cnc2ccc(S(=O)(=O)N3CCC(C)CC3)cc2c1=O
 : >57 | i
- CC(=O)OC(/C(O)=C(\C#N)c1nc2ccccc2[nH]1)c1ccccc1 (stereo not drawn)
 : . | i
- CCCCn1nnnc1SCC(=O)Nc1ccc(C)cc1
 : >57 | i
- CC(=O)c1ccc(NC(=O)CSC(C)C)cc1
 : . | i
- Nc1c(C(=O)c2ccccc2)oc2ccc(Br)cc12
 : . | i
- COc1cc(-c2nnc3sc(-c4ccccn4)nn23)cc(OC)c1OC
 : . | i
- O=C(O)CC(NCc1ccco1)C(=O)OCCc1ccccc1 (stereo not drawn)
 : >25.6 | .
- CCOC(=O)c1ccc(NC(=O)CCc2nc(-c3ccccc3)no2)cc1
 : >57 | i
- CC1(C)C(=O)C(c2ccccc2)=C2CN3C(=O)N(CCc4ccccc4)C(=O)C3(Cc3ccc(C(F)(F)F)cc3)C=C21 (stereo not drawn)
 : . | i
- O=C(O)C1Cc2ccccc2CN1C(=O)c1ccccc1 (stereo not drawn)
 : >57 | i
- COc1ccc(S(=O)(=O)NCCSc2ccc(C)cc2)cc1OC
 : . | i
- O=C(COC(=O)C1CCC1)Nc1ccc(OC(F)F)cc1
 : >57 | i
- CCN(c1ccccc1)S(=O)(=O)c1ccc(F)c(C(=O)O)c1
 : >57 | i
- CCC(C)C(NC(=O)c1ccccc1NC(=O)c1ccc(OC)cc1)C(=O)NCc1ccco1 (stereo not drawn)
 : >57 | i
- COc1ccc(C2CC(=O)c3c(C)nc(N4CCN(Cc5ccccc5)CC4)nc3C2)cc1OC (stereo not drawn)
 : >57 | i
- COc1ccc(N/C=C(\C#N)c2nc3ccccc3n2C)c(OC)c1
 : 10.2* | .
- CCn1nc(C)c(/C=C2\CCCC3=C2OC(N)=C(C#N)C3c2c(C)nn(CC)c2C)c1C (stereo not drawn)
 : >57 | i
- CN(C)C(=O)c1ccc(-c2nc(NCc3cccs3)c3ccccc3n2)cc1
 : . | i
- COCCSc1nc2sc3c(c2c(=O)n1-c1ccccc1)CCN(C)C3
 : >57 | i
- C=C(C)Cn1c(-c2ccccc2)nc2ccccc21
 : . | i
- c1ccc(-c2cc(-c3nnc4sc(-c5ccccn5)nn34)[nH]n2)cc1
 : >57 | i
- O=C(NCc1ccccc1)c1cc(-c2cccs2)on1
 : >57 | i
- Cc1nc2ccccn2c1-c1nnco1
 : >57 | i
- COc1ccccc1N1CCN(C(=O)CSc2nc(C)c(Cc3ccccc3)c(=O)[nH]2)CC1
 : >57 | i
- CC1(C)C(=O)C2(C(=O)NCc3ccccc3)CCC1C2 (stereo not drawn)
 : >57 | i
- N=c1nc(N)nc2n1NC(c1ccc(F)cc1)=CS2
 : 3.61* | i
- CCOC(=O)c1cc2n(n1)C(C(F)(F)C(F)(F)F)CC(C)N2 (stereo not drawn)
 : >57 | i
- CN(C)C(=O)c1ccc(-c2nc(N(C)Cc3ccco3)c3ccccc3n2)cc1
 : . | i

Compounds from the list above containing a CF3 group, in the order listed:
Screens in order: Bst PK mod | TsaE inh
- CC1(C)C(=O)C(c2ccccc2)=C2CN3C(=O)N(CCc4ccccc4)C(=O)C3(Cc3ccc(C(F)(F)F)cc3)C=C21 (stereo not drawn)
 : . | i
- CCOC(=O)c1cc2n(n1)C(C(F)(F)C(F)(F)F)CC(C)N2 (stereo not drawn)
 : >57 | i

Continued.
Screens in order: Bst PK mod | TsaE inh
- O=C(NCC(=O)N(CC1CCCO1)C(C(=O)NC1CCCC1)c1ccc(F)cc1)c1ccco1 (stereo not drawn)
 : >57 | i
- O=C(NCc1ccc2c(c1)OCO2)C1CCN(c2ncccn2)CC1
 : >57 | i
- CN1CCN(CP(=O)(N2CCOCC2)N2CCOCC2)CC1
 : >57 | i
- CCCCCSc1nc2c(c(=O)[nH]c(=O)n2C)n1CC
 : . | i
- N#Cc1c(Nc2ccccc2)c(C=NCCN2CCOCC2)c[nH]c1=O
 : >57 | i
- COC(=O)C1=C(C)NC(C)=C(C(=O)OC)C1c1cn(-c2ccccc2)nc1-c1ccco1
 : . | i
- Cc1cccc2cc(COC(=O)c3ccccc3)c(=O)[nH]c12
 : >57 | i
- CCCCCc1c(C)nc(N2CCOCC2)[nH]c1=O
 : >57 | i
- Cc1cccc(CNc2ncnc3ccc(-c4ccccc4C#N)cc23)c1
 : . | i
- CC(=O)N(O)CCCCCNC(=O)CCC(=O)N(O)CCCCCNC(=O)CCC(=O)N(O)CCCCCN
 : . | i
- CC(Sc1nc2ccccc2c(=O)n1Cc1ccco1)C(=O)c1ccccc1 (stereo not drawn)
 : >57 | i
- N[C@@](CCc1ccccc1)(C(=O)O)c1ccccc1
 : . | i
- O=C(CCCSc1nc2ccccc2[nH]1)NC1=NCCS1
 : >57 | i
- CCn1c(CNc2ccc(C)cc2C)nnc1SCC(=O)N1CCCc2ccccc21
 : >57 | i
- CCn1nc(NC(=O)c2ccccn2)c2cc3cc(C)ccc3nc21
 : . | i
- O=C(OCCN1C(=O)c2ccccc2C1=O)c1cc(=O)[nH]c2ccccc12
 : >57 | i
- CCOc1ccccc1N1CCN(C(=O)c2cc3c(s2)CCC3)CC1
 : >57 | i
- COc1cc(NS(=O)(=O)c2ccc(Br)s2)cc(OC)c1
 : >57 | i
- CCCc1[nH]nc2c1C1(CCN(C(=O)OCc3ccccc3)CC1)C(C#N)=C(N)O2
 : >57 | i
- COc1ccc(Cc2nnc(NC(=O)c3ccco3)s2)cc1OC
 : >57 | i
- CCC1CCCCN1C(=O)c1cc(-c2ccc(Cl)c(Cl)c2)on1 (stereo not drawn)
 : >57 | i
- Cc1nnc(SCC(=O)Nc2cccc(C(F)(F)F)c2)[nH]c1=O
 : >57 | i
- Cc1ccc2[nH]c(=O)c(COC(=O)C3CCCO3)cc2c1 (stereo not drawn)
 : . | i
- COc1cc(C)nc(Oc2ccc(OCc3ccccc3)nn2)n1
 : . | i
- COC(=O)C1=C(C)N2C(=O)CSC2=NC1c1ccc2c(c1)OCO2 (stereo not drawn)
 : . | i
- CC(=O)CC1(O)C(=O)N(CN2CCN(c3ccccc3)CC2)c2ccccc21 (stereo not drawn)
 : . | i
- CCN(CC)C(=O)CSc1nnc(-c2cc(OC)cc(OC)c2)o1
 : >57 | i
- Cc1cc2nc(C3CCN(Cc4nnnn4Cc4cccs4)CC3)[nH]c2cc1C
 : >57 | i
- COc1ccccc1CNc1nc(-c2ccccc2OC)nc2ccccc12
 : . | i
- CC1(C)CC(=O)C(C=Nc2ccc3cn[nH]c3c2)=C(O)C1
 : . | i
- CC[N+](C)(CC)CCOC(=O)C1c2ccccc2Oc2ccccc21
 : . | i
- CN(C)S(=O)(=O)c1ccc(C(=O)Nc2ccc(Cl)cc2)cc1
 : . | i
- ICCc1ccccc1
 : . | i
- N[C@H]1[C@@H](C(=O)O)[C@H]2C=C[C@H]1C2
 : . | i
- COc1ccc(-c2nn3c(C4CCCCC4)nnc3s2)cc1OC
 : >25.6 | .
- C[C@@H]1C[C@H]2[C@@H]3CCC4=CC(=O)C=C[C@]4(C)[C@@]3(F)[C@@H](O)C[C@]2(C)[C@@]1(O)C(=O)COP(=O)(O)O
 : >25.6 | .
- COc1cccc(C(=O)Nc2c(C)n[nH]c2C)c1
 : >57 | i
- O=C(O)c1ccccc1-c1ccccc1C(=O)NCc1ccco1
 : >57 | i
- O=C(c1cnccn1)N1CCC2(CCCN(c3ccc(-c4ccccc4)cc3)C2)CC1
 : . | i
- O=C(CSc1nc2ccccc2n1CC(=O)NCc1ccccc1)NCc1ccco1
 : >57 | i
- Brc1ccccc1-c1nnc(CSc2nnc3sc4ccccc4n23)o1
 : >57 | i
- CCOc1ccc(NC(=O)CSc2nccn2C)cc1
 : >57 | i
- C[N+]1([C@H](CO)Cc2c[nH]c3ccccc23)Cc2ccccc2C1
 : . | i
- CC1(C)Cc2ccccc2C(=O)N1
 : >57 | i
- CN(CCCCCC(=O)/C=N/O)Cc1ccccc1
 : >25.6 | .

A second format for 4 compounds above:
> CC1(C)CC(=O)C(C=Nc2ccc3cn[nH]c3c2)=C(O)C1
  Bst PK mod = . | TsaE inh = i

> Cc1ccc2[nH]c(=O)c(COC(=O)C3CCCO3)cc2c1 (stereo not drawn)
  Bst PK mod = . | TsaE inh = i

> COCCSc1nc2sc3c(c2c(=O)n1-c1ccccc1)CCN(C)C3
  Bst PK mod = >57 | TsaE inh = i

> COc1ccc(Cc2nnc(NC(=O)c3ccco3)s2)cc1OC
  Bst PK mod = >57 | TsaE inh = i

Continuation.
Screens in order: Bst PK mod | TsaE inh
- CC(NC(=O)Cn1nc(C(=O)O)c2ccccc2c1=O)c1ccccc1 (stereo not drawn)
 : >57 | i
- c1ccc(CSc2nnc(-c3ccco3)n2Cc2ccco2)cc1
 : >57 | i
- COCCSc1nnc(NC(=O)COC)s1
 : >57 | i
- Cc1cc(C)nc(SCC(=O)c2cc3ccccc3oc2=O)n1
 : >57 | i
- Cc1cc(S(=O)(=O)N2CCOCC2)ccc1F
 : i | i
- O=C(O)C1CC=C(Cl)CC1C(=O)NCC1OCCc2ccccc21 (stereo not drawn)
 : >57 | i
- COCCn1c(Sc2ccccc2)nc2c1c(=O)[nH]c(=O)n2C
 : >57 | i
- CCOC(=O)c1oc2ccccc2c1CN1CCN(C(=O)c2ccccc2)CC1
 : . | i
- CC(=O)c1c(C)[nH]c(C(=O)CSc2nnc(CN3CCCCCC3=O)n2-c2ccccn2)c1C
 : >57 | i
- CC1CCc2c(sc3c2C2=NS(=O)(=O)CCN2C=N3)C1 (stereo not drawn)
 : >57 | i
- COc1ccc(OC)c(C2CC(=O)N3CN(c4ccccc4F)CSC3=C2C#N)c1 (stereo not drawn)
 : . | i
- CCOC(=O)C1=C(C)NC(C)=C(C(=O)OCC)C1C(=O)O
 : . | i
- O=C(Nc1ccccc1F)C1CCCN(S(=O)(=O)c2cccc3cccnc23)C1 (stereo not drawn)
 : . | i
- CCCS(=O)(=O)N1CCN(Cc2ccncc2)CC1
 : >57 | i
- COc1ccccc1-c1nnc(SCC(=O)N2CCOCC2)o1
 : . | i
- O=C(C1CCCCC1)N1CCC(n2nnc3ccccc32)CC1
 : >57 | i
- O=C(COC(=O)c1ccccc1S(=O)(=O)N1CCCCC1)NCC(F)(F)F
 : >57 | i
- O=C(NCc1cccnc1)c1ccccc1Br
 : . | i
- O=C(CSc1ncnc2c1oc1ccccc12)Nc1ccc2c(c1)OCCO2
 : >57 | i
- Cc1c(NC(=O)OCCNC(=O)Nc2ccccc2)sc(=S)n1C
 : >57 | i
- Cc1cccc(N(Cc2cc3ccccc3[nH]c2=O)C(=O)c2ccco2)c1C
 : >11.4 | .
- COc1ccc(CNC(=O)c2ccccc2SC)cc1
 : >57 | i
- Cc1ccc(S(=O)(=O)NC(=O)NC(C)(C)C)cc1
 : . | i
- Clc1cccc(CSc2nnc([C@@H]3CCCN3)o2)c1
 : >57 | i
- COC(=O)c1cc(CSc2nnc(-c3ccccc3)c(-c3ccccc3)n2)oc1C
 : >57 | i
- N#CCCN1CCN(S(=O)(=O)c2ccc(S(=O)(=O)N3CCCCCC3)cc2)CC1
 : . | i
- COc1ccc(S(=O)(=O)N2CCN(CCO)CC2)cc1-c1nnc2c3ccccc3c(C)nn12
 : . | i
- Cc1cc(C)nc(N2CCC(C(=O)Nc3nnc(C)s3)CC2)n1
 : >57 | i
- COC(=O)C1=CNC=C(C(=O)OC)C1c1ccc(C(=O)OC)cc1
 : . | i
- CCN(CC)CCN1C(=O)C(=O)/C(=C(/O)c2ccc(F)cc2)C1c1ccncc1 (stereo not drawn)
 : >25.6 | .
- CC(NC(=O)C1CCCN(S(=O)(=O)c2cccs2)C1)c1ccccc1 (stereo not drawn)
 : . | i
- COCCN(C(=O)Nc1ccccc1)C(C)c1cccnc1 (stereo not drawn)
 : . | i
- CCc1nc(C)cn1S(=O)(=O)c1cc(Br)c(C)cc1OC
 : >57 | i
- Cc1ccc(N2CC(C(=O)OCc3ccccc3)CC2=O)cc1 (stereo not drawn)
 : . | i
